Assay outcomes as filed in PubChem.
NPYLR7 agonist: activates Aedes aegypti NPYLR7 receptor; HEK293T NPYLR7/Galpha15, GCaMP6s calcium fluorescence; activation, % at 10 µM; 0.15% of 270,000 active; in the data active = activation above about 40%;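 also: 0% = vehicle and 100% = reference agonist at the receptor; some compounds past the cut are filed as inactive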
NPYLR7 agonist max-min: second read-out of NPYLR7 agonist, no call of its own (marks repeat the call); activation, %; measured here: Max-Min RFU normalised activation; some inactives read as strong as hits;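 span of the calcium signal over five minutes; 0% = vehicle and 100% = native peptide agonist; compound fluorescence can raise it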
* = called active by the depositor; & = joins results of further samples.

The line under a structure holds: NPYLR7 agonist, NPYLR7 agonist max-min
- NCC1CCN(Cc2cccc(-c3nc(-c4ccncc4)cc(=O)[nH]3)c2)CC1
  6.9, 4.6
- Cc1cc(C(=O)N2CCC3(CC2)OCCO3)c(C)n1-c1cccc(F)c1
  8.2, 684.7
- Cc1ccc(-n2nc(C(=O)c3cccs3)c(C#N)c2N)cc1
  -0.3, -2.3
- O=c1cccnn1CCCNS(=O)(=O)c1cccc(C(F)(F)F)c1
  -4.7, -6.8
- CC(C)c1nnc(CNC(C)(C)c2ccc(Cl)cc2)o1
  -8.8, -6.5
- N#Cc1cccc(NC(=O)Cn2nnc(-c3ccccc3)c2COc2ccc3ccccc3c2)c1
  8.6, 4.6
- COC(=O)c1cc2sc(Cl)cc2n1CC(=O)NCC1CCCO1 (stereo not given)
  5.2, 5.8
- Cc1cccc(NC(=O)CCC2CCN(C(=O)C3COc4ccccc4O3)CC2)c1 (stereo not given)
  13.6&7.9, 4.0&3.4
- COc1cccc(C(=O)NC(C(=O)NCc2ccco2)C2CCN(C(=O)c3ccc(Cl)cc3)CC2)c1 (stereo not given)
  5.7, 4.6
- COc1ccc(N2CN(C(=O)CN(CC(C)C)C(=O)C3CC3)CC2=O)cc1
  4.3, 11.5
- COCCOC(=O)C1=C(C)N(C)C(=S)NC1c1cccc(NC(=O)Nc2ccc(Cl)cc2)c1 (stereo not given)
  1.2, 12.2
- COC(=O)CCn1c(=O)c2c(nc3n(-c4cc(C)cc(C)c4)c(C)cn23)n(C)c1=O
  7.9, 11.2
- O=C(/C=C/c1ccncc1)NC1CCCN(CCCc2ccccc2)C1 (stereo not given)
  5.9, 2.9
- O=C(c1cc(COc2ccccc2)on1)N1CCCC(CN2CCOCC2)C1 (stereo not given)
  0.8, 5.1
- CCCCOc1ccc(S(=O)(=O)N2CCN(Cc3cc(=O)c(OCc4ccc(SC)cc4)co3)CC2)cc1
  25.6, 9.4
- CCCCCN(CC(=O)Nc1cc(C(C)(C)C)nn1-c1ccc(C)cc1C)C(=O)c1cccc(C(F)(F)F)c1
  12.0, 16.0
- CCCCN(CC(=O)N1CCc2sccc2C1c1ccc(OC)cc1)S(=O)(=O)c1c(C)cc(C)cc1C (stereo not given)
  -3.9, 2.4
- CNC(=O)C1CCCN(S(=O)(=O)N(C)C2CCCCC2)C1 (stereo not given)
  4.7, 1.4
- COc1ccc(CN(CCN2CCOCC2)CC(O)c2ccccc2)cc1OC (stereo not given)
  -2.6, 7.9
- CCOc1ccc(NC(=O)N(CCOC)CC(=O)N(Cc2ccc(F)cc2)Cc2sccc2C)cc1
  16.1, 26.1
- CCNC(=O)[C@@H]1C[C@H](N)CN1C(=O)c1ccnc(OC)c1
  12.3, 2.5
- COC(=O)c1nn(CN2CCOCC2)c(=O)c2ccccc12
  8.0, 2.3
- CCOC(=O)c1nn(-c2ccc(C)cc2)c(=O)cc1NCCCOC(C)C
  6.8, 2.1
- CCOC(=O)C1C(=O)NC(N2CCOCC2)=NC1C(C)C (stereo not given)
  1.4, -1.0
- CCCNc1ncc([C@@H]2C[C@H](NC(C)=O)C[C@H](C3CCCCC3)O2)cn1
  5.7, -9.3
- COc1ccc(-c2cccc(-c3cccc(NC(=O)COc4ccccc4)c3)n2)cc1
  25.6, 32.5
- Oc1[nH]c2ccccc2c1N=NCc1ccccc1
  9.0, 5.0
- Cc1cc(C(=O)NCc2cnc[nH]2)c(C)n1C1CCCCC1
  -7.1, -7.1
- COc1cc(OC)cc(C(=O)N2CCN(c3nc(C)nc(C)c3Cc3ccccc3F)CC2)c1
  2.0, 9.5
- N#CC(=Cc1ccc2c(c1)OCO2)c1nc2ccccc2s1
  5.0, 3.4
- O=C(NCCc1ccccn1)c1cc2n(n1)CCN(Cc1c(Cl)cccc1Cl)C2=O
  14.8, 15.2
- Cc1ccc2oc(=O)n(C3CCN(C(=O)c4cc(C)oc4C)CC3)c2c1
  30.1, 26.6
- CN(C)C(=O)c1ccc(CNC(=O)c2cccc(N3CC=CC3)c2)cc1
  12.4, 9.3
- CCN(CC)c1ccc(CN(Cc2ccc(F)cc2)C(=O)NC(C)(C)C)c(OS(=O)(=O)CC)c1
  8.3, -1.6
- CCN(CC)C(=O)Cn1cc(C(=O)N2CCCC2c2ccccc2OC)nn1 (stereo not given)
  4.5, 1.8
- Cc1ccc(-c2nc3n(c2CNC(=O)c2cncc(Br)c2)CCS3)cc1
  25.4, 24.8
- CCCCn1cc(S(=O)(=O)c2ccccc2)c(=O)c2cc(Cl)ccc21
  -4.0, -8.7
- CCOc1cc(N2CCOCC2)c(OCC)cc1NC(=O)CCc1ccc(N(C)C)cc1
  -3.5, -7.2
- COc1ccc(C(C)N(C)C(=O)CC2(c3ccc(-c4ccccc4)cc3)CC(=O)N(C)C2=O)cc1 (stereo not given)
  5.3, 3.3
- Cc1cc(OCc2nc(C(=O)NCc3ccco3)cs2)ccc1Cl
  24.8, 30.8
- Cc1nc2c(cnn2C(C)C)cc1C(=O)Nc1nc(-c2ccc(F)cc2)c(C)s1
  1.8, 3.2
- CO[C@H]1O[C@H](CBr)[C@@H](OC(=O)c2ccccc2)[C@H](O)[C@H]1O
  5.5, 4.7
- Cc1ccccc1OCC(C)NS(=O)(=O)c1cnc[nH]1 (stereo not given)
  -6.6, -7.9
- O=c1c(Cl)c(N2CCN(c3ccccc3)CC2)cnn1Cc1ccccc1Cl
  10.7, 5.1
- Cc1ccc(C(=O)O)cc1S(=O)(=O)N1CCc2ccc(F)cc21
  -0.9, -5.0

Not a retest: entries from further up.
The line under a structure holds: NPYLR7 agonist, NPYLR7 agonist max-min
- Cc1nc2c(cnn2C(C)C)cc1C(=O)Nc1nc(-c2ccc(F)cc2)c(C)s1
  1.8, 3.2
- CO[C@H]1O[C@H](CBr)[C@@H](OC(=O)c2ccccc2)[C@H](O)[C@H]1O
  5.5, 4.7
- Cc1ccccc1OCC(C)NS(=O)(=O)c1cnc[nH]1 (stereo not given)
  -6.6, -7.9
- O=c1c(Cl)c(N2CCN(c3ccccc3)CC2)cnn1Cc1ccccc1Cl
  10.7, 5.1
- Cc1ccc(C(=O)O)cc1S(=O)(=O)N1CCc2ccc(F)cc21
  -0.9, -5.0

Next structures
The line under a structure holds: NPYLR7 agonist, NPYLR7 agonist max-min
- Cn1nc(C(=O)O)c2ccccc2c1=O
  2.4, -0.6
- O=C(Nc1ccccc1C(F)(F)F)N1CCC2(CC1)SCCN2C(=O)c1ccc(C(F)(F)F)cc1
  -3.8, -1.6
- CSc1c(C)c(C#N)c(=O)n(NC(=O)C(c2ccccc2)c2ccccc2)c1C
  5.6, 3.6
- N#Cc1ccsc1NC(=O)Cn1c(C(F)(F)F)ccc(C(N)=O)c1=O
  6.2, 3.0
- C#CCn1c(=NC(=O)c2coc3ccccc3c2=O)sc2cc(OC)c(OC)cc21
  1.3, -0.4
- Cc1ccc(C(=O)NCC(=O)N2CCc3ccccc32)cc1C
  1.1, -1.5
- CCCCN(CC(=O)N(CCc1c[nH]c2ccccc12)Cc1ccccc1)C(=O)COc1ccc(Cl)cc1
  26.1, 24.3
- COc1ccc(N(C)C(=O)Cn2cccc(C(F)(F)F)c2=O)cc1OC
  -6.2, -7.9
- NC(=O)C1CCCCN1Cc1ccc(C(=O)N2CCCC2)cc1 (stereo not given)
  -3.4, -2.7
- CON(C)C(=O)c1cccn1CCc1ccccc1
  -2.5, -5.1
- CCn1ccc(=O)nc1SCc1ccc2ccccc2n1
  -1.5, -3.9
- CCOC(=O)CN(C(C)=O)[C@@H]1C[C@@H]2CO[C@H](c3ccccc3)C[C@@H]2C1
  21.8, 27.0
- CCOC(=O)c1scc(-c2ccccc2)c1S(=O)(=O)N1CC=C(c2ccccc2)CC1
  0.4, -6.5
- CCOc1cn(C)c(C(=O)Nc2ccc(C)c(Cl)c2)cc1=O
  1.7, 0.4
- CC(C)N(CCN1C(=O)CSC1c1ccccc1F)C(=O)c1ccccc1Cl (stereo not given)
  -4.9, -6.3

Full records from above.
Shown for C#CCn1c(=NC(=O)c2coc3ccccc3c2=O)sc2cc(OC)c(OC)cc21 → NPYLR7 agonist = 1.3; NPYLR7 agonist max-min = -0.4
Shown for O=C(Nc1ccccc1C(F)(F)F)N1CCC2(CC1)SCCN2C(=O)c1ccc(C(F)(F)F)cc1 → NPYLR7 agonist = -3.8; NPYLR7 agonist max-min = -1.6

Next section:
The line under a structure holds: NPYLR7 agonist, NPYLR7 agonist max-min
- Cc1cc(C)c(S(=O)(=O)Nc2ccccc2C(F)(F)F)c(C)c1
  -4.1, -9.2
- COCCNC(=S)NC/C=C(\C)CCC=C(C)C
  -0.6, -6.2
- COCCCNCc1ccc2n1CCN=C2c1ccccc1
  19.3, 6.9
- CCC1CCCCN1Cc1nc2c(c(=O)n(C)c(=O)n2C)n1Cc1ccc(Cl)cc1 (stereo not given)
  1.6, 4.1
- COc1ccc(OCC(O)CN(CCC(C)C)Cc2ccc(F)cc2F)cc1 (stereo not given)
  15.7, 22.5
- CC(=O)Nc1ccc(CN2CCC2(C)C(=O)Nc2cnc3ccccc3c2)cc1 (stereo not given)
  4.1, -2.5
- COc1ccccc1-c1nccn1C(Cn1ccnc1)c1ccccc1 (stereo not given)
  -1.1, -5.3
- CC(C)(C)C(O)=CS(=O)(=O)c1ccccc1
  -4.0, -5.7
- O=C1NC(=O)c2cc(Cl)c(Cl)cc21
  -6.9, -12.6
- O=C(NCc1ccc(Cl)cc1)c1nnn(Cc2cccc(F)c2)c1-n1cccc1
  3.2, 1.4
- Cc1ccc(-n2nnc3c(=O)n(CC(N)=O)cnc32)cc1
  4.0, 10.5
- O=C(c1cccc(-n2cnnn2)c1)N1CCN(C(=O)C2CC2c2ccc(F)cc2)CC1 (stereo not given)
  0.1, -1.8
- OC1CCN(c2ccc(Nc3cnc4ccccc4n3)cc2)CC1
  -0.9, -0.9
- CCCCCC(=O)c1c(C)[nH]c(C(=O)OCC)c1C
  7.8, 1.4
- CC1=CC[C@@H]2CN(C(=O)CCc3cccnc3)C[C@@H]2C1
  8.4, 6.2
- COc1ccc2cc(C(C)C(=O)NC3(C)CCS(=O)(=O)C3)ccc2c1 (stereo not given)
  -23.6, -27.5
- CC1(C(=O)Nc2ccc3c(c2)OCO3)CCN1Cc1ccoc1 (stereo not given)
  13.4, 11.8
- Cc1cc(Nc2ccc3c(n2)C(=O)N(CC(=O)NCCCO)C3)n(C)n1
  2.4, -1.7
- Fc1ccc(Br)cc1C1CC(c2cccnc2)Nc2nnnn21 (stereo not given)
  1.8, 1.2
- Cc1ccc(-c2nc3n(c2CNC(=O)c2ccc(S(=O)(=O)N(C)C)cc2)CCS3)cc1
  16.5, 11.3
- c1cc[n+]2cc3n(c2c1)Cc1c[n+]2ccccc2n1C3
  13.1, 5.9
- CN(C)C(CNC(=O)Cc1n[nH]c(=O)c2ccccc12)Cc1ccccc1 (stereo not given)
  7.2, 3.5
- O=C(NCc1cccnc1)c1cnn2c(C(F)(F)F)cc(-c3ccc(F)cc3)nc12
  2.4, 0.9
- CCSC1CCCC(NC(=O)c2c(C)c(C)nn(C)c2=O)C1 (stereo not given)
  5.8, 5.4
- FC(F)(F)c1nnc2ccc(N3CCCCC3)nn12
  19.8, 18.2
- COC(=O)C1CCN(C(=O)CC2CSc3nc4c(c(=O)n32)CCCC4)CC1 (stereo not given)
  -0.8, -1.0
- Cc1cccc(C2CN(C)CCc3c2cc(O)c(O)c3Cl)c1 (stereo not given)
  2.6, -21.1
- Cc1ccc(CN(CC(O)COCC(C)C)C2CC2)c(C)c1 (stereo not given)
  15.1, 24.8
- Nc1c2c(nn1-c1ccccc1)CSC2
  -8.9, -18.0
- Cc1n[nH]c(C)c1/C=C(/C#N)c1nc(-c2ccc(Cl)cc2)cs1
  -0.4, 0.6
- Cc1cc(S(=O)(=O)N2CCN=C2c2ccccc2)ccc1F
  -4.1, -4.2
- CN1CC(NC(=O)CC2(CC(=O)c3ccc(Cl)s3)CCCCC2)CCC1=O (stereo not given)
  2.9, 1.5
- O=C(COc1ccccc1)N1CCc2ccc(O)cc2C1
  0.9, -1.4
- Cc1ccc(-c2[nH]c3ccccc3c2SCCNC(=O)c2ccc(S(=O)(=O)N(C)C)cc2)cc1
  0.1, 13.1
- Cc1nc(-c2ccc3c(c2)OCO3)cc(C(C)C)n1
  14.8, 13.6
- Cc1cc(C)cc(N2CCC(NCCn3ncc4ccccc4c3=O)CC2)c1
  14.9, 9.5
- O=C(CSC12CC3CC(CC(C3)C1)C2)N1CCCn2cncc2C1
  0.2, -1.8
- CCN1CCOC(CNc2ncnc3ccsc23)C1 (stereo not given)
  1.0, -0.9
- CC1CCC(NS(=O)(=O)N2CCCC(C)C2)CC1 (stereo not given)
  -1.6, -5.8
- COc1cccc(OC)c1OCCOc1ccc(C)cc1Br
  -5.2, 3.7
- CS(=O)(=O)CC[C@H](NC(=O)C1=C[C@@H](NC(=O)[C@@H]2C[C@@H](O)CN2)[C@@H](O)[C@H](O)C1)C(N)=O
  -10.6, -15.4
- COc1cc(OC)c2c(c1)OC1(CCN(C(=O)OCc3ccc(OC)c(OC)c3Cl)CC1)CC2=O
  -4.9, -8.6
- COCCOCC(=O)N1CCC(n2c(=O)oc3ccc(F)cc32)CC1
  5.6, 0.7
- CCCCN(CC(=O)NCC(=O)Nc1ccc(OC)cc1)C(=O)CC(C)(C)C
  15.1, 11.7
- CC(C)CC1CCN(C(=O)c2ccccc2I)C1 (stereo not given)
  1.8, -9.2
- CCCc1ccc(OCCNC(C)=O)c(OC)c1
  5.5, 9.7
- CC(C(=O)N1CCCC1)N1CCN(C(=O)c2c(Cl)nc3ccccn23)CC1 (stereo not given)
  6.4, 4.4
- CN(Cc1ccc2ccccc2n1)C(=O)c1ccc(N2CC(O)C2)nc1
  11.1, -3.4
- COc1cccc2cc(CNCC3CCOC3c3cnn(C)c3)oc12 (stereo not given)
  2.0, 0.3
- CC(C(=O)Nc1cc(Cl)ccc1N(C)C)n1ccnc1 (stereo not given)
  12.3, 5.3
- CCN1CCN(C(c2cccnc2)c2c(NC(C)=O)sc3c2CCCC3)CC1 (stereo not given)
  11.4, 11.6

Not all compounds are listed, so the mix of outcomes need not match the whole.
